# HPGD inh: qHTS Assay for Inhibitors of HPGD (15-Hydroxyprostaglandin Dehydrogenase) | 15-hydroxyprostaglandin dehydrogenase [NAD(+)] (Homo sapiens), P15428 | actives 4.3% (n = 150,000) | purified HPGD, NADH fluorescence kinetic, PGE2 substrate | Potency, µM, for the others: top-dose activity change, negative = inhibition, hits mostly inhibitors; active = well fitted inhibition curve with a large enough effect (not every such curve was filed as active); inconclusive = small, poorly fitted or top-dose-only effect, or another doubt; inactive = no such curve, though single readings can be large or run the other way;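 note: top concentration of the series not given in the record; plate controls included wells without enzyme; inactives centre near -10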
# Target sequence (P15428 whole entry, looked up): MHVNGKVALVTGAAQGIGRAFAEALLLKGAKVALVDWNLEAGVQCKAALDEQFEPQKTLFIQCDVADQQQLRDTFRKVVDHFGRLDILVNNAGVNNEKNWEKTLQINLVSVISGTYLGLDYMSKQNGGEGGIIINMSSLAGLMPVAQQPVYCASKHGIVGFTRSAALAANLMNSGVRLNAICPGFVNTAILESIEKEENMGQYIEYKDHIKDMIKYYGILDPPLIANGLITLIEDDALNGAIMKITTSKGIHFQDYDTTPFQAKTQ
#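 NADH formation kinetics: reaction with 30 uM PGE2 and 1 mM NAD+ (final), 20 nM enzyme, Tris-HCl pH 8 with Tween 20, after 15 min compound preincubation at room temperature. Fluorescence change, last versus first of five reads.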
# An asterisk follows results filed as active; ? = inconclusive. % is set by controls: 0 for no effect and ±100 for the full control effect; potency is the fitted concentration of half-maximal effect. These rows are one share of the data; the hit share may differ from the screen's.
Compound	HPGD inh
CCOC(=O)C1CCN(C2CC(=O)N(c3ccc(OCC)cc3)C2=O)CC1 (stereo unspecified)	4%
N#Cc1ccc(CN2CC[C@@]3(CCCN(C(=O)c4ccncc4)C3)C2)cc1	-3%
Nc1nc2c(ncn2C2CC(O)C(CO)O2)c(=O)[nH]1 (stereo unspecified)	-3%
CCC(CC)C1C(C#N)=C(N)Oc2n[nH]c(C)c21 (stereo unspecified)	-3%
CC(C)OC(=O)CN1C(=O)S/C(=C/c2ccc(N3CCCCC3)o2)C1=O	-13%
O=C(COc1ccccc1)NCC(=O)N/N=C/c1ccco1	?
O=C(NCCc1ccccc1)C(=O)NCC1(c2ccccc2)CCCC1	-7%
Cc1ccc(Oc2ncc(CN3CC(C)OC(C)C3)s2)cc1 (stereo unspecified)	-3%
CC(C)CSc1nc2ccccc2n1CC(N)=O	-4%
CCOCCc1nnc(NC(=O)CSc2ccccc2)s1	-4%
O=C(O)C1C2C=CC(C2)C1C(=O)N1CCc2ccccc21 (stereo unspecified)	-6%
CCOC(=O)c1[nH]c(C)c(C(=O)OCC(=O)N2CC(=O)Nc3ccccc32)c1C	16µM*
Brc1ccc(N=Cc2ccccn2)cc1	-8%
COc1cccc(C2=NOC(C(=O)NCc3ccc(F)cc3)C2)c1 (stereo unspecified)	0%
CC(C)c1ncc(C(O)c2cccc3ccccc23)n1C (stereo unspecified)	-16%
COCc1ccc(O)c2ncccc12	-12%
CCn1c(-c2ccc(F)cc2)cnc1SCC(=O)N1CCc2ccccc21	-3%
CCC1=C(OC(=O)N(CC)CC)N2C(=O)OC(=NCCc3c[nH]c4ccccc34)[C@]2(Cc2ccccc2)[C@H]2C1=CC[C@H]1C(=O)N(CC)C(=O)[C@H]12	-10%
CCOc1ccc(CCNC(=O)CN2CCN(Cc3ccccc3F)C2=O)cc1OCC	-1%
CCOC(=O)c1ccc(NC(=S)NCCCN2CCCCC2)cc1	-12%
CC1CN(C)C(C)CC1NCc1ccc2c(c1)OCO2 (stereo unspecified)	-5%
Cc1ccc(C(=O)ONc2ccc(N=NC(=O)c3ccccc3O)cc2)cc1	28µM*
CCCCCCn1c(N2CCN(c3cccc(Cl)c3)CC2)nc2c1c(=O)[nH]c(=O)n2C	-24%
COc1ccc(-n2c(SCC(=O)Nc3nc(C)cs3)nnc2-c2ccoc2C)cc1	-13%
CN(CCNC(=O)c1cn(C)c2ccc(S(=O)(=O)N3CCCC3)cc2c1=O)CCc1ccccc1	-7%
CN(C)S(=O)(=O)c1ccc(C(=O)OCc2ccc(C#N)cc2)cc1	-4%
CCCCC[C@H](O)CC[C@H]1[C@H](O)CC(=O)[C@@H]1CCCCCCC(=O)O	-8%
O=C(NCc1cccnc1)c1sc2cc(Cl)ccc2c1Cl	?
CC(=O)OCC(=O)c1ccc2ccn(C(C)=O)c2c1	?
O=C(C1CC1)N1CCc2cc(Br)cc(S(=O)(=O)N3CCOCC3)c21	-1%
O=C(c1ccco1)N1CCC[C@@]2(CCN(Cc3ccccc3)C2)C1	-6%
N#Cc1c(Nc2ccccc2)sc(C(=O)C2CC2)c1N	-15%
COc1cccc(Nc2ncc3ncc(=O)n(C4CC4)c3n2)c1	-7%
CN(C(=O)CCN1C(=O)C(C)(C)Nc2ccccc21)c1ccccc1	-17%
COc1ccc(OCC(O)COc2ccc(OC)cc2)cc1	-13%
Cc1nc2cncnc2n(-c2ccccc2)c1=O	-19%
COc1ccc(OC)c(N=c2oc3c(OC)cccc3cc2C(=O)NCc2ccco2)c1	-4%
O=C1CC(=C(c2ccccc2)c2ccccc2)C(=O)N1CCCCN1CCN(c2ccccc2)CC1	-17%
CCCN1CCN(CCCNC(=O)Cn2ncc3c4ccccc4n(C)c3c2=O)CC1	?
CC(NC(=O)C1CCCO1)c1ccccc1 (stereo unspecified)	18µM*
Cc1cccc(NC(=S)NC(=O)c2cccs2)n1	-17%
Fc1cccc(Cl)c1/C=N\N=C1c2ccccc2-c2ccccc21	-6%
Cc1ccccc1/C=N/NC(=O)CSc1nc2ccccc2o1	3%
COc1ccc2nc(C)cc(SCC(=O)NNC(=O)COc3ccc(C)cc3)c2c1	-3%
COC(=O)C1=C(C)NC(=O)CC1c1ccccc1F (stereo unspecified)	-3%
COC(=O)c1cccc(NC2CC(=O)N(c3ccc(OC)c(OC)c3)C2=O)c1 (stereo unspecified)	?
CC(C)(O)C1=NOC(c2ccccc2)C1 (stereo unspecified)	-11%
CCOc1ccc(C(=O)NCC(=O)OCC(=O)N2C(C)CCCC2C)cc1 (stereo unspecified)	-4%
CCCCNC(=S)N(C)/N=C/c1ccc2c(c1)OCO2	-8%
COc1ccccc1OC(=O)c1ccc(SC)cc1OC	-9%

# (next part)
Compound	HPGD inh
CC1CN(c2ccccc2)C(=O)CS1 (stereo unspecified)	16µM*
O=C(/C=C/c1ccco1)Oc1cc(Br)cc(/C=N/NC(=O)c2ccccc2O)c1	?
O=C(CC1(O)C(=O)N(Cc2ccccc2Cl)c2ccccc21)c1ccco1 (stereo unspecified)	-1%
CC(=O)c1cccc(NC(=O)CSc2nnc(-c3ccc(S(=O)(=O)N4CCCC4)cc3)o2)c1	-5%
CCn1ncc(/C=C/C(=O)Nc2c(C)nn(CC)c2C)c1C	-2%
Cc1cc(Nc2ccc(O)cc2)ccc1N	-13%
COc1cc(OC)cc(C(=O)NCCOc2ccccc2)c1	-12%
CCCCn1c(N)c(N(CC)C(=O)CCc2ccccc2)c(=O)[nH]c1=O	-3%
O=C(/C=C/c1ccc([N+](=O)[O-])cc1)NCCSc1ccccc1	-12%
O=C1c2ccccc2NC(c2ccccc2)N1c1ccc(O)cc1 (stereo unspecified)	-13%
CCC(C)[C@H](NC(=O)N1CCN(c2cccc(C(F)(F)F)c2)CC1)C(=O)OC (stereo partly specified)	0%
COc1ccccc1C(=O)NCCn1ccc2ccccc21	-10%
COc1cccc(Nc2nc3ccccc3n3cnnc23)c1	-6%
O=C(Nc1ccc2c(c1)CCC2)c1cccc(F)c1	-22%
S=c1[nH]nc(-c2ccccn2)n1/N=C/c1ccccc1	?
CC(C)=CCCC1(C)C=Cc2c(c(C)cc3c2[nH]c2ccccc23)O1 (stereo unspecified)	-8%
CC(=O)CSc1nnc(-c2cnccn2)n1-c1ccccc1	-9%
C/C(=N\NC(=S)NC1CCCCC1)c1ccccc1	-10%
Cc1cccc(OCCOC(=O)C2CCN(S(=O)(=O)c3cccs3)CC2)c1	-7%
Cc1cccc(N2CCN(C(=O)CC(NC(=O)c3ccccc3)c3ccccc3)CC2C)c1 (stereo unspecified)	-5%
COc1cc2c(cc1OC)C1=C(C#N)CC/C(=N\S(=O)(=O)c3ccccc3)N1CC2	?
CN(Cc1cn(-c2ccccc2)nc1-c1ccc(Cl)cc1)C(=O)CCC(=O)O	-20%
Cc1ccc(Nc2nc(N)nc(CN3CCN(C)CC3)n2)cc1	-7%
O=C(O)CCc1nnc2n(Cc3ccc(F)cc3)c(=O)c3ccccc3n12	-24%
O=C(OCC(F)(F)C(F)F)c1ccccc1C(=O)Oc1ccc(F)cc1F	-27%
O=C1CCCCN1CCc1c[nH]c2ccccc12	-11%
COc1ccc(-c2csc(NS(=O)(=O)c3ccc([N+](=O)[O-])cc3)n2)cc1	-14%
CCOc1cc(OCC)cc(C(=O)Nc2cccc(C(C)=O)c2)c1	-9%
O=C(c1cccs1)N(Cc1ccco1)Cc1cc2ccccc2[nH]c1=O	-14%
COC(=O)Cn1c(=NC(=O)c2ccc(OC)cc2)sc2cc(OC)ccc21	?
COc1cccc(NC(=O)CSc2nnc(Cn3nnc4ccccc43)n2C)c1	-14%
Cc1ccccc1NC(=O)Nc1nnc(CC(=O)NCc2ccccc2)s1	-2%
C[C@@](N)(C(=O)O)c1cccc(CC(=O)O)c1	-9%
CSc1nc2nc3c(c(=O)n2[nH]1)CCCC3	-11%
CC1Cc2cc(/C(O)=C3/C(=O)C(=O)N(CCCN(C)C)C3c3ccncc3)ccc2O1 (stereo unspecified)	-2%
Cc1ccc(OCCNC(=O)/C=C/c2ccccc2)cc1C	-14%
CCC12CN(C(=O)c3ccc(OC)cc3)CC(CC)(CN(C(=O)c3ccc(OC)cc3)C1)C2=O	-6%
COc1ccccc1N1CCN(C(c2ccc(N(C)C)cc2)c2nnnn2CCc2ccccc2)CC1 (stereo unspecified)	-22%
CCOc1ccc(NC(=S)N(CCc2c(C)[nH]c3ccc(C)cc23)Cc2cccnc2)cc1	-9%
Cc1c(C(=O)Nc2ccccc2)sc2nc(-c3ccccc3)cn12	-11%
O=C(N1CCOCC1)N(CCN1CCOCC1)Cc1cccc2ccccc12	0%
COc1ccc(OC)c(/C=N/NC(=O)CCc2ccc(O)c(O)c2)c1	?
C=CCn1c(SCC(=O)NC2CCS(=O)(=O)C2)nnc1-c1cc2c(s1)CCC(CC)C2 (stereo unspecified)	-4%
CCc1cccc2c(C(=O)CSc3nncn3-c3ccc(OC)cc3)c[nH]c12	-7%
NS(=O)(=O)c1ccc(NC(=O)C2CCCN(S(=O)(=O)c3ccc(F)cc3)C2)cc1 (stereo unspecified)	-8%
C[C@@H]1C(=O)OC2C[C@@]34[C@H]5C[C@@H](C(C)(C)C)[C@@]36C(O)C(=O)O[C@H]6O[C@@]4(C(=O)O5)[C@]21O (stereo partly specified)	4%
COc1ccc(-n2nnnc2SCC(=O)N2CCOCC2)cc1	-2%
C1COCCNCCOCCOCCN1	-8%
COc1c(-c2ccc(O)c(O)c2)oc2cc(O)cc(O)c2c1=O	-8%
CC(C)(C)c1ccc(C(=O)NCCCN2CCN(CCCNC(=O)c3ccc(C(C)(C)C)cc3)CC2)cc1	-18%

# The listing continues:
Compound	HPGD inh
C=CCC(C)(O)C(=O)OCC (stereo unspecified)	-6%
CS(=O)(=O)N1CCCC(C(=O)NCCCN2CCN(Cc3ccccc3)CC2)C1 (stereo unspecified)	-4%
O=C(O)c1ccc(N2CCCCCC2)c(N2C(=O)c3ccccc3C2=O)c1	-12%
Cc1cc(C)c(S(=O)(=O)Nc2ccc(OCC(=O)O)cc2)c(C)c1	-9%
O=C(COC(=O)c1ccccc1Br)NCCc1ccc(F)cc1	-16%
CCOC(=O)CSC1=C(C#N)C(c2ccccc2OC)CC(=O)N1 (stereo unspecified)	-17%
COCCNc1nnc(SCC(=O)Nc2sc3c(c2C(=O)c2ccccc2)CCCC3)s1	-26%
Cc1ccc(C(=O)c2cc([N+](=O)[O-])ccc2N2CCOCC2)c(C)c1	-4%
Cc1c(C(=O)Nc2ccc(Oc3ccccc3)cc2)sc2nc3n(c(=O)c12)CCC3	-27%
CC(C)NC(=O)c1ccccc1NC(=O)CN(c1ccc2c(c1)OCO2)S(C)(=O)=O	-13%
c1ccn2c(SCc3ccc4c(c3)OCCO4)nnc2c1	-12%
O=C(COC(=O)C1CC2C=CC1C2)Nc1cccc(S(=O)(=O)N2CCCCC2)c1 (stereo unspecified)	-6%
COC(=O)[C@H](Cc1ccccc1)NC(=O)[C@@H](N)CC(=O)O	-4%
Cc1ccc(-c2nn(-c3cc(Cl)ccc3[N+](=O)[O-])c(=O)c3ccccc23)cc1	-7%
O=c1c2cn[nH]c2[nH]c(=S)n1-c1cccc2ccccc12	-18%
C=CCNCCOCCOc1ccc(Cl)cc1C(C)(C)C	-13%
CC(C)(C)C(=O)Nc1ccc(S(=O)(=O)c2ccc(NC(=O)C(C)(C)C)cc2)cc1	-6%
COc1cccc(CNS(=O)(=O)/C=C/c2ccc3c(c2)OCO3)c1	-6%
CCN(CC)S(=O)(=O)c1ccc(S(=O)(=O)N2CCN(CCC#N)CC2)cc1	-8%
Cc1ccc(-c2nnc(Oc3cccc(C)c3)c3ccccc23)cc1	-9%

# Entries above shown as hits in HPGD inh.
Compound	HPGD inh
CCOC(=O)c1[nH]c(C)c(C(=O)OCC(=O)N2CC(=O)Nc3ccccc32)c1C	16µM*
Cc1ccc(C(=O)ONc2ccc(N=NC(=O)c3ccccc3O)cc2)cc1	28µM*
CC(NC(=O)C1CCCO1)c1ccccc1 (stereo unspecified)	18µM*
CC1CN(c2ccccc2)C(=O)CS1 (stereo unspecified)	16µM*

# (cont.)
Compound	HPGD inh
Cc1ccc(C(=O)CC2(O)C(=O)N(Cc3ccc4c(c3)OCO4)c3ccccc32)cc1 (stereo unspecified)	-18%
Cc1ccc(N(CC(=O)N2CCc3ccccc32)C2=NC(=O)CS2)cc1	-3%
Cc1occc1-c1nnc(SCC(=O)c2ccc(F)cc2)n1Cc1ccco1	?
CCc1ccc(OC)c(S(=O)(=O)Nc2ccccc2C)c1	8%
CCOC(=O)CSc1nnc(-c2ccncc2)o1	-12%
COc1cc(Cl)cc2c1Sc1ccccc1/C2=C/CCN(C)C	-3%
NCCNS(=O)(=O)c1ccc(N)cc1	-1%
COCCN(CCOC)C(=O)c1cc2c(=O)n3ccccc3nc2s1	?
CCOC(=O)c1c(CN(CC)CC)oc2ccc(OC)cc12	-16%
CCCc1nc2oc3cc(OC)ccc3c(=O)c2c(=O)n1Cc1ccco1	-22%
O=C(Nc1nnc(C2COc3ccccc3O2)o1)c1ccc(F)cc1 (stereo unspecified)	-8%
CC1CC(C)CN(c2ncnc3c2cnn3-c2ccc(Cl)cc2)C1 (stereo unspecified)	?

# High-throughput results deposited in PubChem BioAssay by National Center for Advancing Translational Sciences (NCATS).
